# Bioassay records as filed in PubChem BioAssay.
# Measles inh – inhibitors of measles virus growth in cells, primary screen, measles RdRp inhibitor project, cell-based, single point, HTS; 33,000 tested, 0.1% active; z-score (test concentration not listed); infected Vero cells, GFP fluorescence, 64 h; stronger effect = lower value;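 active means z-score under -3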;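 further: score is relative to mean and SD of the compound wells of a plate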
# Starred values were filed as active, the others as inactive.
Measles inh,SMILES
-0.8,Cc1cccc(C(=O)Nc2cccc(-c3nc4ccccc4s3)c2C)c1
0.08,CC1=C(C(=O)Nc2nc3ccc(Br)cc3s2)C(c2cccnc2)C2=C(CC(C)(C)CC2=O)N1 (configuration not stated)
0.66,O=C(CC(NCc1cccnc1)C(=O)O)Nc1ccc(Cl)cc1 (configuration not stated)
0.12,Cn1c(=O)[nH]c(=O)c2c1nc(N1CCCCCC1)n2Cc1ccccc1
0.1,CC(=O)N1c2c(ccc3ccccc23)C(C)=CC1(C)C
-0.37,CC1CCC(NS(=O)(=O)c2cccc3nsnc23)CC1 (configuration not stated)
-0.74,Cc1ccccc1CSc1ncccc1C(=O)O
0.72,CCOc1ccc(NC(=O)c2c(NC(=O)c3ccccc3Cl)sc3c2CCCC3)cc1
0.46,Cc1ccc(S(=O)(=O)CCc2nnc(NC(=O)C3CCCCC3)s2)cc1C
-0.14,COc1ccc(S(=O)(=O)NCc2ccccc2Cl)c2cccnc12
-1.02,COC(=O)Cn1cnc2sc(C)c(S(=O)(=O)N3CCN(C)CC3)c2c1=O
-0.62,CCCCN(CC)C(=O)Cn1c(=O)n(-c2ccc(F)cc2)c(=O)c2sccc21
1.19,COc1cccc(-c2cc(C(=O)Nc3ccccc3C(F)(F)F)c3ccccc3n2)c1
-0.03,CCCCC1CCC(C(=O)c2ccccc2)CC1 (configuration not stated)
0.04,Cn1cc(C(=O)NCc2ccco2)c(=O)c2cc(S(=O)(=O)N3CCCCC3)ccc21

# Taken from above.
# Reading of CCOc1ccc(NC(=O)c2c(NC(=O)c3ccccc3Cl)sc3c2CCCC3)cc1 under Measles inh: 0.72
# Reading of COC(=O)Cn1cnc2sc(C)c(S(=O)(=O)N3CCN(C)CC3)c2c1=O under Measles inh: -1.02
# Reading of CCCCN(CC)C(=O)Cn1c(=O)n(-c2ccc(F)cc2)c(=O)c2sccc21 under Measles inh: -0.62
# Reading of Cc1cccc(C(=O)Nc2cccc(-c3nc4ccccc4s3)c2C)c1 under Measles inh: -0.8

# Continued.
Measles inh,SMILES
-0.55,COc1ccc(Br)c(C(=O)Nc2cc(C(=O)Nc3ccccc3F)ccc2N2CC3CC(C2)c2cccc(=O)n2C3)c1 (configuration not stated)
0.33,COC(=O)C1=C(C)Nc2ncnn2C1c1ccc(OC)c(OC)c1 (configuration not stated)
-0.17,COc1ccc2nc3sc(C(=O)N4CCCCC4C)cc3cc2c1 (configuration not stated)
1.63,CCN(CC)S(=O)(=O)c1c(C)cc(C)cc1C
-0.33,COc1cc2c(cc1NC(=O)c1ccc(C)cc1Cl)oc1ccccc12
1.31,Cn1c(=O)c2c(SCc3ccc(F)cc3)nc(-c3ccc(F)cc3)nc2n(C)c1=O
-0.18,Cc1cc(=O)[nH]c(SCC(=O)Nc2ccc(S(=O)(=O)Nc3nccs3)cc2)n1
-0.22,CCCOc1ccc(C2C(C(=O)OCC3CCCO3)=C(C)NC3=C2C(=O)CC(C)(C)C3)cc1OC (configuration not stated)
0.15,S=c1nc[nH]c2c1oc1ccc(Br)cc12
-1.64,COC(=O)c1cc(OC)c(OC)cc1NC(=O)c1cccs1
-0.04,CCCS(=O)(=O)c1c(S(=O)(=O)CCC)c2ccc(C(C)=O)cn2c1C(=O)OC
-0.45,COc1ccc(CNCCC2CCOC(C)(C)C2)cc1 (configuration not stated)
0.73,CCCSc1nnc2c(n1)OC1(Nc3ccc(Br)cc3-2)C(=O)Nc2ccc(F)cc21 (configuration not stated)
1.76,Nc1ccc(CCc2nc3ccccc3o2)cc1
-0.37,O=c1nc2n(-c3ccc4ccccc4c3)c3ccc([N+](=O)[O-])cc3cc-2c(=O)[nH]1

# Following part
Measles inh,SMILES
-0.94,COC(=O)CSc1nc2c(c(-c3cccs3)c1C#N)CCC2=Cc1cccs1
-0.07,COc1cc(C(=O)N2CCN(C(=O)c3c(OC)cccc3OC)CC2)cc(OC)c1OC
1.18,COc1ccc(C)cc1NS(=O)(=O)c1cccc2nsnc12
-0.76,COCCSc1nc2c(c(=O)n(C)c(=O)n2C)n1Cc1ccccc1Cl
-1.09,COc1ccccc1C(=O)N1CCN(C(=O)COc2ccccc2)CC1
-0.37,CC1CCC(NC(=O)C2(C)CCC(=O)N2CCc2ccc(Cl)cc2)CC1 (configuration not stated)
0.28,COc1cccc(-c2cc(C(=O)Nc3c(C)nn(Cc4ccc(F)cc4)c3C)no2)c1
-1.29,C=CCN(c1ccccc1)S(=O)(=O)c1cc(C(=O)Nc2ccccc2CC)ccc1F
2.01,CCCN(CCC)Cc1nc2c(c(=O)[nH]1)C1(CCCC1)Cc1ccccc1-2
0.95,O=C1c2ccccc2NC(c2ccc([N+](=O)[O-])cc2)N1c1ccc2ccccc2c1 (configuration not stated)
0.05,COc1ccccc1C1SCCN1C(=O)c1cc2ccccc2oc1=O (configuration not stated)
1.04,O=C(O)CCc1n[nH]c(=S)[nH]c1=O
-0.46,C=CCn1c(=S)[nH]c2sc3c(c2c1=O)CCC(C(C)(C)C)C3 (configuration not stated)
-1.14,COc1ccccc1CNC(=O)CCc1nc(-c2ccccc2F)no1
-0.07,O=[N+]([O-])c1ccc(S(=O)(=O)NCC2COc3ccccc3O2)cc1 (configuration not stated)

# Continuation.
Measles inh,SMILES
1.26,O=C(Nc1nnc(CCS(=O)(=O)c2ccc(Br)cc2)s1)c1ccccc1Cl
0.41,Cc1nc2cc(N=Cc3ccccc3[N+](=O)[O-])ccc2n1C
0.78,Cc1nn(C(C)(C)C)c(OC(=O)CC2CCCCC2)c1S(=O)(=O)c1ccccc1
-0.69,O=C(c1ccccc1[N+](=O)[O-])N(Cc1ccccc1)c1ccccn1
0.44,COC(=O)c1c(C)oc2ccc(OC(=O)c3ccco3)cc12
-1.28,O=C(NCCCO)c1c(O)c2cccc3c2n(c1=O)CCC3
0.44,O=C(CSc1nnc(-c2ccccc2)o1)N1CCOCC1
2.99,CCSCCOC(=O)C1=C(C)NC2=C(C(=O)CC(c3ccccc3OC)C2)C1c1cccc([N+](=O)[O-])c1 (configuration not stated)
0.31,COc1ccc(N2C(=O)CSC2c2ccccc2Br)cc1Cl (configuration not stated)
-0.48,O=C(c1ccc(Cl)cc1)C1Oc2ccccc2C2CC(c3ccccc3)=NN12 (configuration not stated)
1.47,COc1ccc(OCCNC(=O)c2ccc(C)cc2)cc1
0.11,Cc1cc(C)cc(NC(=O)c2cc(S(=O)(=O)N3CCc4ccccc4C3)ccc2F)c1
0.76,Cc1ccc(S(=O)(=O)Nc2ccccc2C(=O)Nc2ccc3c(c2)C(=O)N(C)C3=O)cc1
-1.33,Cc1ccc(-c2nn(CCc3ccccc3)c(=O)c3ccccc23)cc1
-1.31,CC1=C(C(=O)OC2CCC(C)CC2)C(c2ccc([N+](=O)[O-])cc2)NC(=O)N1 (configuration not stated)

# Remaining list, next part
Measles inh,SMILES
-0.85,O=C(CSc1nccn1-c1ccc(F)cc1)Nc1ccc(F)cc1
0.11,CCC(C(=O)NCCN(CC)c1ccccc1)N1C(=O)COc2ccccc21 (configuration not stated)
0.65,CC(C)c1ccc(Nc2cc(C(=O)NCc3ccc4c(c3)OCO4)c3ccccc3n2)cc1
2.13,Cc1cc(C)c(NC(=O)c2cc(S(=O)(=O)NC3CCCCCC3)ccc2F)c(C)c1
-1.15,COc1cc(Br)cc(C=Cc2[nH]c(=O)[nH]c(=O)c2[N+](=O)[O-])c1OCc1ccccc1
-0.4,CC(=O)Nc1c(C)ccc(S(=O)(=O)N2CCCCC2)c1C
-0.21,CC(C)C(=O)NC(C=Cc1ccccc1)c1cc([N+](=O)[O-])c2cccnc2c1O (configuration not stated)
-0.15,c1ccc2nc(-c3ccc4c(ccc5ccccc54)n3)ccc2c1
-0.47,Cc1cc(NC(=O)c2ccc(C(C)(C)C)cc2)nc2c1c(=O)oc1ccccc12
-0.27,COc1ccc(S(=O)(=O)N2CCCCC2)cc1C(=O)Nc1ccccc1
-0.63,Cc1ccc(-c2nnc(Nc3ccc(Cl)cc3)c3ccccc23)cc1S(N)(=O)=O
-0.14,COc1cccc2cc(-c3nnc(Nc4cc(C(F)(F)F)ccc4Cl)s3)c(=O)oc12
0.93,CC(C)(C)NC(=O)Cn1nc(C(F)(F)F)c2c1CCC2
1.41,Cc1ccc(N2CCN(c3ccc(N4C(=O)COCC4=O)cc3[N+](=O)[O-])CC2C)cc1 (configuration not stated)
0.36,CCc1ccc2[nH]c(C)c(CN3CCCC3)c(=O)c2c1

# Reformatted tab-delimited: part of the list above.
smiles	Measles inh
Cc1ccc(N2CCN(c3ccc(N4C(=O)COCC4=O)cc3[N+](=O)[O-])CC2C)cc1 (configuration not stated)	1.41
CCc1ccc2[nH]c(C)c(CN3CCCC3)c(=O)c2c1	0.36

# The listing continues:
Measles inh,SMILES
-0.21,COc1ccccc1Cn1c2ccccc2c2nc3ccccc3nc21
0.14,Nc1c(C(=O)Nc2ccccc2F)sc2nc3c(cc12)CCCCCC3
-0.97,Cc1cc(C)nc(/N=C(\N)Nc2cccc(O)c2)n1
-0.27,CCC(C)Nc1cc(C)c(C#N)c2nc3ccccc3n12 (configuration not stated)
1.99,Cc1ccc(CCN2CC(C(=O)NC3CC3)CC2=O)cc1 (configuration not stated)
-1.13,Cc1c(C(=O)O)cccc1N1C(=O)c2ccc(-c3nc4ccccc4c(=O)o3)cc2C1=O
0.08,COc1ccc(C2C(C(=O)N3CCCC(C)C3)c3cc(OC)c(OC)cc3C(=O)N2C)cc1 (configuration not stated)
2.53,COC(=O)c1c([N+](=O)[O-])cnn1C
1.11,CC1CCN(CCCNC(=O)C2c3ccccc3C(=O)N(C)C2c2cn(C)c3ccccc23)CC1 (configuration not stated)
-0.12,COc1cc2c(cc1OC)C(COc1ccccc1OC)N(C(=O)c1ccc(Br)o1)CC2 (configuration not stated)
-0.62,Cc1ccccc1Nc1c(-c2ccsc2)nc2cccc(C)n12
-0.59,O=C(Nc1cc2c(cc1Cl)C(=O)c1ccccc1C2=O)c1ccco1
-0.42,O=c1c2cc3ccccc3cc2[nH]c(=S)n1CCc1ccccc1Cl
0.45,COC(=O)C1=C(C)N(C)C(C)=C(C(=O)OC)C1c1ccc(C)c([N+](=O)[O-])c1
0.12,O=C1C(Cl)=C(N2CCN(c3ccccc3)CC2)C(=O)N1c1cccc(Cl)c1

# Random excerpt: 2 entries already listed
Measles inh,SMILES
-0.27,CCC(C)Nc1cc(C)c(C#N)c2nc3ccccc3n12 (configuration not stated)
-0.62,Cc1ccccc1Nc1c(-c2ccsc2)nc2cccc(C)n12

# Additional compounds.
Measles inh,SMILES
-0.37,O=C(Nc1c[nH]c(=O)[nH]c1=O)c1ccc(N2C(=O)CCC2=O)cc1
-0.39,COc1cc(C2C3=C(CCCC3=O)NC3=C2C(=O)CCC3)ccc1O
0.8,Cc1ccc(NS(=O)(=O)c2ccc3[nH]c(=O)c(=O)[nH]c3c2)cc1Cl
0.04,COc1cc2c(cc1OC)C(COc1ccccc1OC)N(C(C)=O)CC2 (configuration not stated)
-0.64,COc1cc(C(=O)Nc2cc([N+](=O)[O-])cc3oc(-c4ccccc4)cc23)cc(OC)c1OC
-1.34,CC1CCC(NC(=O)c2ccc3c(=O)n(Cc4ccc(Cl)cc4)c(=S)[nH]c3c2)CC1 (configuration not stated)
-0.08,Cc1nc(SCC(=O)Nc2ccc3ccccc3c2)c2c3c(sc2n1)CCC3
0.08,O=C(Oc1ccc(I)cc1)C1c2ccccc2Oc2ccccc21
-0.52,COCCN1C(=O)c2ccccc2C(C(=O)N2CCCC(C)C2)C1c1c[nH]c2ccccc12 (configuration not stated)
-2.04,COc1ccc(Nc2c3c(c(C#N)c4nc5ccccc5n24)CCC3)cc1
-0.15,O=S(=O)(c1cnc[nH]1)N1CCC(Cc2ccccc2)CC1
1.46,Cc1cccc(NC(=O)c2ccc3c(=O)n(-c4ccc(F)cc4)c(=S)[nH]c3c2)c1
-0.92,CCOc1ccc(NC(=O)C2CC(=O)N(CC)C(=Nc3cccc(F)c3)S2)cc1 (configuration not stated)
0.4,Cc1cc(S(=O)(=O)NCCN2CCOCC2)ccc1Cl
-0.22,Oc1ccccc1-c1nnc2n1N=C(c1ccc(Br)cc1)CS2

# Another view of part of the listing above:
> O=C1c2ccccc2NC(c2ccc([N+](=O)[O-])cc2)N1c1ccc2ccccc2c1 (configuration not stated)
  Measles inh = 0.95
> COc1ccccc1C1SCCN1C(=O)c1cc2ccccc2oc1=O (configuration not stated)
  Measles inh = 0.05
> O=C(O)CCc1n[nH]c(=S)[nH]c1=O
  Measles inh = 1.04
> C=CCn1c(=S)[nH]c2sc3c(c2c1=O)CCC(C(C)(C)C)C3 (configuration not stated)
  Measles inh = -0.46

# Later entries:
Measles inh,SMILES
-0.29,CCc1ccc(-c2cn(-c3ccc(Br)cc3)c(=S)[nH]2)cc1
0.01,COc1ccc(-n2cnc3cc(C(=O)NCCC4=CCCCC4)ccc32)cc1
1.02,Cc1ccn2cc(-c3ccc(S(=O)(=O)N4CCCCCC4)cc3)nc2c1
-0.79,CC(=O)Oc1ccc(C2CC(=O)Nc3cc4c(cc32)OCO4)cc1 (configuration not stated)
-0.14,O=c1[nH]c(-c2ccc(Cl)cc2)nc2ccccc12
1.62,COc1cccc2c1OC1(C)CC2NC(=O)N1c1ccc(F)cc1 (configuration not stated)
-1.44,O=C(Nc1c2c(nn1-c1ccc(F)cc1)CS(=O)(=O)C2)c1ccccc1Cl
1.17,Nc1c(C(=O)N2CCOCC2)sc2nc(-c3ccccc3)cc(C(F)(F)F)c12
-0.6,CC(C)Cn1cc(C(=O)Nc2ccc(C(C)C)cc2)c2c3ccccc3n(C)c2c1=O
0.28,Cn1ncc(N)c1C(=O)N1CCOCC1
1.02,CCCSc1nnc(Cc2cc(=O)[nH]c(=O)[nH]2)n1-c1ccc(F)cc1
0.1,CCOc1nn(-c2nc(-c3ccco3)cc(C(F)(F)F)n2)cc1[N+](=O)[O-]
-0.52,Cc1ccc(C)c(S(=O)(=O)N=C2C=C(NS(=O)(=O)c3ccccc3)C(=O)c3ccccc32)c1
0.79,Cc1cc(OCC(=O)Nc2ccc(S(=O)(=O)Nc3ncccn3)cc2)ccc1C(C)C
0.91,COC(=O)Cn1c(=S)[nH]c2ccc(F)cc2c1=O
-0.89,CCSCCOC(=O)C1=C(C)NC2=C(C(=O)CC(C)(C)C2)C1c1ccc(SC)cc1 (configuration not stated)
-0.6,CCc1ccc(-c2cn(-c3ccccc3F)c(=S)[nH]2)cc1
0.88,CCOCCOC(=O)C1=C(C)NC2=C(C(=O)CC(c3ccccc3)C2)C1c1cccc2ccccc12 (configuration not stated)

# Some of the compounds tested (hit frequency here may not be typical).
